# RE007 growth inh: less growth of the S. pombe RE007 Vpr strain | actives 0.21% (n = 360,000) | S. pombe RE007 Vpr strain, BacTiter-Glo ATP luminescence, 24 h; control for the full effect not named in the record | AID 651644 | Potency, µM (highest dose often 92.2 µM), without a hit: at the highest dose activity change, negative = less growth; active = well fitted falling curve with a large enough effect; inconclusive = small, poorly fitted or top-dose-only effect; inactive = no such curve, though single readings can be large or run the other way;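 also: % is scaled to controls: 0 for no effect and ±100 for the full control effect; nearly all actives have a fitted effect of over 50% in size; the assay follows cell death caused by Vpr and the record does not say whether a fall means rescue or toxicity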
#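 Fission yeast strain RE007, carrying one chromosomally integrated HIV-1 vpr copy, was seeded at OD 0.01 in PMG+AL medium with 23 nL pinned compound. After 24 h at 30 °C and 99% humidity, viability was read by BacTiter-Glo luminescence.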
# Cruzain noTriton: inhibitors of Trypanosoma cruzi cruzain without detergent; actives 2.3% (n = 200,000); purified cruzain, Z-FR-AMC fluorescence, no detergent; Potency, µM, for inactives: max response, negative = inhibition, hits mostly inhibitors;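 also: plate controls were enzyme without inhibitor for no effect and buffer without enzyme for full effect; nearly all actives have a fitted effect of over 40% in size; top concentration of the series not given in the record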
# Target sequence (P25779 123-467 limits assumed): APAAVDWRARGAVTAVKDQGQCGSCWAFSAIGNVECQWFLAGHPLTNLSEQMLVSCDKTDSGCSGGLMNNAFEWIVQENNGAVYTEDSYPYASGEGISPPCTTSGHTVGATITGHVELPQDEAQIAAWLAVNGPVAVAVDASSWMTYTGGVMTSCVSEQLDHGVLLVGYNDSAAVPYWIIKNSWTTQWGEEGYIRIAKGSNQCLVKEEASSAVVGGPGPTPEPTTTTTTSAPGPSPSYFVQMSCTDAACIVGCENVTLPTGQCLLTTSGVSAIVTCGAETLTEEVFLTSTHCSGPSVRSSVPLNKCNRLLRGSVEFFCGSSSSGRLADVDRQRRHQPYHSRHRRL
#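 Purified cruzain at 1.5 nM, pre-incubated 15 min with compound at room temperature in 100 mM sodium acetate pH 5.5, 5 mM DTT, 0.00005% Triton X-100. Reaction started with 2 uM Z-FR-AMC; AMC fluorescence increase over 60 s gives rate.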
# LASV entry inh: inhibitors of Lassa virus binding or cell entry; Lassa virus pseudotype entry inhibition, cell reporter; control for the full effect not named in the record; Potency, µM (top dose mostly 37.9 µM), for the others: top-dose activity change, negative = inhibition, usual class: inhibitors; actives 1.2% (n = 300,000); active means well fitted inhibition curve with a large enough effect; inconclusive means small, poorly fitted or top-dose-only effect, or effect the other way; inactive means flat fitted curve, though single readings scatter; tested in HEK293 cells; also: % is scaled to controls: 0 for no effect and ±100 for the full control effect; nearly all actives have a fitted effect of over 50% in size; luciferase read-out
# StopGo reporter: lowers the luciferase signal of an FMDV 2A StopGo reporter; human cells with a luciferase reporter of 2A StopGo recoding; control for the full effect not named in the record; Potency, µM (titrated, usually from 57.9 µM), without a hit: at the highest dose signal change, negative = less light; actives 1.2% (n = 410,000); AID 1159524; active = well fitted falling curve with a large enough effect; inconclusive = small, poorly fitted or top-dose-only effect; inactive = no such curve, though single readings can be large or run the other way; tested in HEK293T cells; also: % is scaled to controls: 0 for no effect and ±100 for the full control effect; nearly all actives have a fitted effect of over 45% in size; luciferase light after 4 h
# NS1 inh: blocks influenza NS1 protein function; S. cerevisiae slowed by influenza A NS1, growth recovery by OD600; Potency, µM (highest dose often 46.1 µM), inactives show at the highest dose activity, positive = more growth; actives 0.4% (n = 270,000); active means well fitted rising curve with a large enough effect; inconclusive means small, poorly fitted or top-dose-only effect; inactive means no such curve, though single readings can be large or run the other way; also: nearly all actives have a fitted effect of over 50% in size
#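 A cell-based growth assay was used: compounds that relieve NS1-induced slow growth of budding yeast raise OD600. Assay medium was yeast nitrogen base with ammonium sulphate and -URA supplement, pH 6.0, with 2% galactose.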
# Cruzain Triton: inhibitors of Trypanosoma cruzi cruzain with detergent | actives 0.43% (n = 200,000) | purified cruzain, Z-FR-AMC fluorescence, 0.01% Triton | Potency, µM, for the others: max response, negative = inhibition, actives largely listed as inhibitors | AID 1478;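 also: plate controls were neutral wells for no effect and buffer without enzyme for full effect; nearly all actives have a fitted effect of over 40% in size; top concentration of the series not given in the record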
#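 Purified cruzain (1.5 nM final) was preincubated with compounds for 15 min at room temperature in 100 mM sodium acetate pH 5.5, 5 mM DTT, 0.01% Triton X-100. Reaction started with 2 uM Z-FR-AMC; AMC fluorescence change over 60 s gave activity.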
# MARV entry inh: blocks Marburg virus binding to or entry into cells. Marburg virus pseudotyped entry inhibition, cell reporter; control for the full effect not named in the record; about a third of the inactives were read at about 46 µM. Potency, µM (series often up to 37.8 µM), for the others: top-dose activity change, negative = inhibition, most hits filed as inhibitors. actives 1.8% (n = 300,000); active = well fitted inhibition curve with a large enough effect; inconclusive = small, poorly fitted or top-dose-only effect, or effect the other way; inactive = flat fitted curve, though single readings scatter; tested in HEK293 cells; about a fifth of its hits are not listed in these tables; also: % is scaled to controls: 0 for no effect and ±100 for the full control effect; luciferase read-out
# SARS PLP yeast: blocks SARS-CoV papain-like protease in a yeast assay; S. cerevisiae expressing SARS-CoV PLpro, growth rescue; control for the full effect not named in the record; AID 485353; actives 0.19% (n = 330,000); Potency, µM (doses to about 32.9 µM), for the others: top-dose activity, positive = growth rescue; active means well fitted rising curve with a large enough effect; inconclusive means small, poorly fitted or top-dose-only effect; inactive means no such curve, though single readings can be large or run the other way; also: 0% is about no effect; nearly all actives have a fitted effect of over 55% in size; growth read by luminescence after 48 h
# An asterisk follows results filed as active; ? = inconclusive; . = not tested or not shown; & = joins results of further samples; [ ] = remark or other dose. Unless noted, calls follow the shape of the dose curve; as a rule, active = well fitted curve in the direction sought with a large enough effect; inconclusive = small, poorly fitted or top-dose-only effect, or another doubt; inactive = no such curve, though single readings can be large; an effect the other way counts as inactive or inconclusive. Potency is read from the fitted curve at half-maximal effect.
SMILES,RE007 growth inh,Cruzain noTriton,LASV entry inh,StopGo reporter,NS1 inh,Cruzain Triton,MARV entry inh,SARS PLP yeast
Cc1cc2ncn(C(=O)c3cc(-c4ccccc4)nc4ccccc34)c2cc1C,-25%,2%,8%,-8%,-20%,-7.7%,3%,3%
Cc1ccccc1C(=O)N/N=C/c1ccc([N+](=O)[O-])s1,-28%,4%,-24%,.,-88%,-4.6%,4.1µM*,-49%
COCC(C)NC(=O)NC1(C(F)(F)F)Oc2ccc(Cl)cc2O1 (stereo not given),1%,2%,?,-29%,-7%,1.0%,?,9%
CCCC(=O)N1c2nc(-c3ccco3)nn2C2(CCCCC2)[C@@H]2CCCC[C@@H]21,.,-3%,-6%[46.1 µM],-21%,.,-2.3%,?,.
Cc1ccc(-n2c(=O)[nH]c3cc(C(=O)NCc4ccccc4)ccc3c2=O)cc1,.,-1%,1%[46.1 µM],-3%,.,-1.7%,0%[46.1 µM],.
CCc1nc2oc3cc(OC)ccc3c(=O)c2c(=O)n1Cc1ccco1,5%,-9%,-5%,-21%,-17%,-0.6%,4%,2%
O=C(CCc1nc2ccccc2c(=O)[nH]1)N1CCN(S(=O)(=O)c2ccccc2Br)CC1,-10%,.,-26%[46.1 µM],-23%,.,.,-27%,?
CCn1cc(/C=C(\NC(=O)c2ccc(OC)c(OC)c2)C(=O)N2CCN(C)CC2)c2ccccc21,3%,.,.,-8%,-3%,.,.,-1%
O=C(Nc1nccs1)c1ccc(N2CCOCC2)c([N+](=O)[O-])c1,-6%,.,-24%,9%,-11%,.,?,3%
COc1cccc(C(=O)Nc2ccccc2-c2nnc(-c3cc(OC)ccc3Br)o2)c1,.,-9%,1%[46.1 µM],7%,.,0.9%,-5%[46.1 µM],.
O=C(NC(=S)NCCC1=CCCCC1)c1ccc(Br)o1,-9%,.,1%[46.1 µM],18%,-1%,.,?,0%
O=S(=O)(c1cccc2nsnc12)N1CCOCC1,12%,3%,7%,6%,7%,3.4%,2%,7%
CCOc1ccc(OCC(=O)N(C)c2c(N)n(Cc3ccccc3)c(=O)[nH]c2=O)cc1,-3%,.,11%,-7%,.,.,-4%,-1%
COc1cc(OC)cc(C(=O)N[C@H](C(=O)NCc2ccco2)C(C)C)c1,11%,.,-17%[46.1 µM],-11%,.,.,-27%[46.1 µM],5%
Cc1ccc(CNC(=O)c2nc(SCc3ccccc3C)ncc2Cl)cc1,.,20%,-1%[46.1 µM],?,.,2.4%,7%[46.1 µM],.
O=c1c(Cc2c(F)cccc2Cl)c(O)ccn1Cc1ccc2c(c1)OCO2,6%,.,1%[46.1 µM],27%,2%,.,?,0%
COc1ccc(C2=NN(C(C#N)c3ccc(OC)c(OC)c3)C(c3ccccc3)C2)cc1 (stereo not given),-23%,-15%,?,56%[activator],12%,0.3%,?,23%
CCOC(=O)CSc1nnc2n(-c3ccccc3)c(=O)c3c4c(sc3n12)COC(C(C)C)C4 (stereo not given),.,-4%,-6%[46.1 µM],-28%,.,-2.3%,-21%[46.1 µM],.
CCCc1cc(=O)[nH]c(SCC(=O)c2cc(C)n(-c3c(C)n(C)n(-c4ccccc4)c3=O)c2C)n1,-22%,.,-5%,-8%,.,.,-2%[46.1 µM],0%
C=CCN1CCN(C(c2cccc(OC)c2OC)c2nnnn2CCC(C)C)CC1 (stereo not given),-18%,.,-12%,9%,.,.,-18%[46.1 µM],-1%
CCn1c(COc2cccc3ccccc23)nnc1SCC(=O)OC1CCCCC1,25%,-6%,-11%,.,-112%,-5.5%,16%,-8%
Cc1ccc(S(=O)(=O)Cc2nc(-c3ccc(C(=O)NCc4ccccc4C)cc3)oc2C)cc1,.,0%,-1%[46.1 µM],-12%,.,-2.3%,.,.
CN(CC(=O)Nc1ccncc1)S(=O)(=O)c1ccccc1,5%,-5%,-8%,-22%,8%,3.7%,?,0%
COCCN(C(=O)COC(=O)/C=C/c1ccc(C(F)(F)F)cc1)c1c(N)n(Cc2ccccc2)c(=O)[nH]c1=O,-5%,.,?,-29%,.,.,-29%,2%
O=C(c1ccccc1)c1ccc(-c2ccc(O)cc2)cc1,10%,.,?,50%[activator],-4%,.,?,-4%
# Continuation.
SMILES,RE007 growth inh,Cruzain noTriton,LASV entry inh,StopGo reporter,NS1 inh,Cruzain Triton,MARV entry inh,SARS PLP yeast
CN(Cc1ccc(Br)s1)C(=O)CNC(=O)c1ccc2c(c1)OCO2,5%,.,0%,15%,.,.,-24%,-2%
COCCn1c(SCC(=O)N2CCCc3ccccc32)nnc1-c1ccoc1C,-5%,1%,7%,-9%,-2%,-2.4%,6%,8%
CCOc1cccc2cc(C(=O)N3CCc4ccccc4C3)c(=O)oc12,-16%,-12%,0%,26%,-10%[9.22 µM],-9.7%,18%,0%
CCOC(=O)c1ccc(CN(Cc2ccc(C)cc2)S(=O)(=O)c2cccc([N+](=O)[O-])c2)cc1,7%,-1%,-1%,0%,-12%,-2.3%,-35%,2%
NS(=O)(=O)c1ccc(NC(=O)COc2ccc(S(=O)(=O)N3CCCC3)cc2)cc1,4%,.,-22%[46.1 µM],-3%,13%,.,7%[46.1 µM],1%
O=C1OCCN1C(=O)[C@H]1[C@H](c2ccccc2)C(c2ccc(F)cc2)=NN1c1ccc(Br)cc1,5%,20µM*,.,-18%,.,-5.5%,.,-7%
CCOc1ccc(-c2[nH]nc3c2C(c2ccc(O)cc2)C(C#N)=C(N)O3)cc1 (stereo not given),-8%,-7%,-4%,.,?,-1.9%,-4%,-9%
CS(=O)(=O)c1[nH]nc(-c2cccc(Cl)c2)c1C#N,-4%,.,-7%,-11%,7%,.,4%[14.2 µM],-1%
COC(CNC(=O)CCc1c(C)nc2c(-c3ccccc3)c(C)nn2c1C)OC,-9%,.,25%[46.1 µM],6%,-3%,.,?,-2%
Cc1ccccc1C(=O)NC1CCN(Cc2nnnn2CCc2ccccc2)CC1,5%,5%,-14%,-20%,0%,-0.3%,-12%,-1%
Cc1cccc(OCC(=O)N2CCN(C(=O)c3ccc([N+](=O)[O-])cc3)CC2)c1,2%,.,6%,-16%,-1%,.,-15%[46.1 µM],0%
COc1ccc(C/C(N)=N/n2cnnc2)cc1,4%,-5%,17%,.,1%,-0.7%,5%,-2%
O=C(c1ccc2ccccc2c1)N1CCN(Cc2ccccc2)CC1,-14%,.,.,19%,-12%,.,.,1%
CC1(C)CC(NC(=O)c2ccc3c(c2)OCO3)CC(C)(C)N1,-5%,-10%,-1%,0%,-3%,4.5%,-1%,2%
COC(=O)c1cn(-c2ccccc2)nc1-c1ccccc1,-16%,-3%,9%,-9%,-1%,-2.3%,-21%,0%
O=C(NCc1cccnc1)c1ccc(Cl)c(S(=O)(=O)Nc2ccccc2C(=O)NCc2cccnc2)c1,2%,.,?,53%[activator],.,.,?,?
CCn1ncc(Br)c1C(=O)NC1CCCCCCC1,2%,.,.,-26%,1%,.,.,5%
COc1ccccc1Oc1coc2cc(O)ccc2c1=O,-10%,11%&-3%,-5%,-2%&0%,0%,2.7%&-3.8%,3%&3%,-7%
O=C(COc1ccc2c(C(F)(F)F)cc(=O)oc2c1)Nc1ccc(N2CCOCC2)cc1,2%,10%,-3%,-15%,-6%,-2.0%,?,22%
CCOC(=O)c1noc2ncnc(Nc3cc(Cl)c(OC)cc3OC)c12,.,7%,13%[46.1 µM],-6%,.,0.4%,.,.
CCC(=O)NC(=S)Nc1ccccc1C(F)(F)F,0%,.,-4%,0%,.,.,0%,.
CC(C)N(C(=O)CN1C(=O)NC(c2ccccc2)(c2ccccc2)C1=O)C(C)C,5%,.,-5%[46.1 µM],7%,6%,.,1%[46.1 µM],3%
CCOc1ccc(NC(=O)CC2C(=O)N(c3cccc(C)c3)C(=O)N2Cc2cccs2)cc1 (stereo not given),.,-1%,-8%[46.1 µM],11%,.,-5.2%,.,.
CC(NC(=O)C1CC1)C(c1cccs1)N1CCOCC1 (stereo not given),7%,.,.,3%,-5%,.,.,0%
CCOC(=O)c1c(C)nc(C)c(C(=O)OCC)c1-c1ccc(O)c(OC)c1,-12%,.,?,-15%,.,.,?,4%
# (cont.)
SMILES,RE007 growth inh,Cruzain noTriton,LASV entry inh,StopGo reporter,NS1 inh,Cruzain Triton,MARV entry inh,SARS PLP yeast
Cc1ccsc1C(=O)OCC(=O)Nc1cccc(S(=O)(=O)N2CCOCC2)c1,-7%,-9%,-21%,21%,-4%,-2.5%,-7%[46.1 µM],2%
CCCC1=C([O-])C2N=CC=CC2=[N+](c2ccccn2)C1=O (stereo not given),15%,-1%,-14%,-6%,-4%,-4.6%,?,1%
Cc1ccc(-c2nc3nc(C)cc(Nc4ccccc4O)n3n2)cc1,.,-10%,?,23%,.,-1.8%,.,.
CC1CN(S(=O)(=O)c2ccc(C(=O)Nc3nccs3)cc2)CC(C)O1 (stereo not given),-3%,.,.,-28%,0%,.,.,1%
N#Cc1ccc(OC(=O)c2cc(-c3ccc4c(c3)OCCO4)on2)cc1,.,20%,-15%[46.1 µM],-9%,.,-5.1%,?,.
CN(Cc1cccnc1)C(=O)CNC(=O)COc1ccccc1,17%,.,2%,-6%,10%,.,-5%[46.1 µM],-3%
CCOC(=O)c1ccccc1NC(=S)N1CCC(C)CC1,6%,2%,1%,110%[activator],-10%,-1.4%,0%,0%
Nc1nnc(-c2cccc(F)c2)s1,5%,.,3%[46.1 µM],0%,-2%,.,0%[46.1 µM],0%
CCn1c(C(=O)N2CCC(C(=O)NCc3cccs3)CC2)cc2sccc21,1%,5%,.,-26%,-12%,-1.2%,.,-6%
CCCCNC(=O)CCn1c(=O)c2ccccc2n(Cc2ccccc2C#N)c1=O,.,-1%,-4%[46.1 µM],-3%,.,-2.8%,0%[46.1 µM],.
Cc1ccc(NC(=O)C(=O)NCc2ccco2)cc1,.,-17%,20%[46.1 µM],13%,.,-3.0%,.,.
COc1cccc(-c2cc(C(F)(F)F)n3ncc(C(=O)N4CCc5ccccc5C4)c3n2)c1,7%,.,-26%,-25%,3%,.,?,0%
CCOC(=O)c1c(-c2ccc(Cl)cc2)c(C#N)c(=O)n(N)c1N,9%,-8%,?,-23%,5%,-12%,-13%,0%
Cc1cc(C)c(S(=O)(=O)c2ccccc2)c(N2CCOCC2)n1,18%,.,1%[46.1 µM],34%[activator],.,.,?,-2%
